VCAM-1 augmentation – enhancers of VCAM-1 display on endothelial cells, imaging, high-content imaging, pooled HUVEC, TNFa stimulus (AID 457) | Pooled HUVEC, TNFa-induced VCAM-1 immunofluorescence imaging; hits of this screen are not shown here | 10,000 compounds, 0.2% hits | calls only;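 active = a top-ranked rise in VCAM-1 staining upheld on image or statistical review; inactive = the rest, including candidates rejected on review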;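 also: compounds tested at 5 µM in the well; cells exposed to compound for 24 hours before fixing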
FPRL1 binder – human FPRL1 ligands by binding competition, primary screen, cell-based, FPR counter-screen, flow cytometry. inhibition, %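 (tested at 6.7 µM)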. 24,000 compounds, 0.3% hits. N-formyl peptide receptor 2 (Homo sapiens), P25090. FPRL1-expressing cells, fluorescent ligand binding inhibition;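 also: 0% = buffer alone and 100% = receptor blocker peptide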
Target sequence (P25090 whole entry, looked up): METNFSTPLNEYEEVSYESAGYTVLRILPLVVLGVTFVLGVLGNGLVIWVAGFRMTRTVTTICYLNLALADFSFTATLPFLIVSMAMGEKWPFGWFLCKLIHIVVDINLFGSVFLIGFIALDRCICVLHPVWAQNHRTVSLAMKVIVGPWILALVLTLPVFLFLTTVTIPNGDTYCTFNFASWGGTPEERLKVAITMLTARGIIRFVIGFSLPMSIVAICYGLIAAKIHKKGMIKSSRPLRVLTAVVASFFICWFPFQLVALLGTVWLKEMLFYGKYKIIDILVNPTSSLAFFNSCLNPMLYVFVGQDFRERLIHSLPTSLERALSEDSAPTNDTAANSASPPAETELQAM
FPR ligand – human FPR ligands by binding competition, primary screen, cell-based, FPRL1 counter-screen, flow cytometry; fMet-Leu-Phe receptor (Homo sapiens), P21462; FPR-expressing cells, fluorescent ligand binding; inhibition, %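 (tested at 6.7 µM)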; 24,000 compounds, 0.74% hits; AID 440, 2006;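 also: 0% = buffer wells and 100% = receptor blocker peptide wells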
Target sequence (P21462 whole entry, looked up): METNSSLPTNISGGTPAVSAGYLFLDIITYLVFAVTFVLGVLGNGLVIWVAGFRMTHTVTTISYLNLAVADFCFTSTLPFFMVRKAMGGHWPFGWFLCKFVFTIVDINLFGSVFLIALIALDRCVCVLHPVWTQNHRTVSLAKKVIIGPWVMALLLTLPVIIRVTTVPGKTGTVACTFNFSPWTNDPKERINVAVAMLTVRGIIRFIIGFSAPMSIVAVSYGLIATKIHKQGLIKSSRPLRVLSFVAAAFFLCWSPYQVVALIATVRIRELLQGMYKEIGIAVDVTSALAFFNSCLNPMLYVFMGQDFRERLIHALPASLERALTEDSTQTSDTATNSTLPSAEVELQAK
VCAM-1 down – inhibitors of TNFa-induced VCAM-1 surface display, cell-based, plate reader, pooled HUVEC, TNFa stimulus (AID 454); inhibition, % at 5 µM; 10,000 compounds, 0.2% hits; HUVEC TNFa-induced VCAM-1 surface immunofluorescence, plate reader; numbers were filed only for top-ranked candidate wells;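 active = compound among top-ranked inhibitors of TNF-induced VCAM-1 adhesion protein staining, with the hit upheld by image or statistical review; inactive = the rest, including hits rejected on review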;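 also: 0% = TNFa with vehicle and 100% = cells without TNFa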
VCAM-1 imaging – inhibitors of TNFa-induced VCAM-1 surface display, imaging, high-content imaging, pooled HUVEC, TNFa stimulus (AID 456); HUVEC TNFa-induced VCAM-1 surface expression, immunofluorescence imaging; numbers were filed only for top-ranked candidate wells; inhibition, % at 5 µM, or IC50 in µM where a hit was titrated; 10,000 compounds, 0.2% hits;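 active = top tenth filtered wells with inhibition above zero that passed visual or statistical confirmation; inactive = the rest, including hits rejected on review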;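 also: 0% = stimulated vehicle wells and 100% = unstimulated cells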
* marks the source's active call; other numbers are inactive results; i = inactive; nt = not tested or not shown.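 The calls were made as follows, unless noted: active = mean above 30%; inconclusive = self-fluorescent; inactive = the rest.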 The list is partial (hit frequency here may not be typical).

SMILES	VCAM-1 augmentation	FPRL1 binder	FPR ligand	VCAM-1 down	VCAM-1 imaging
O=c1c2ccccc2nc(N2CCN(c3ccccc3)CC2)n1Cc1ccccc1	nt	-4.0	-1.7	nt	nt
COc1cc2c(=O)n(Cc3ccccc3)c(=O)n(CC(=O)C(C)(C)C)c2cc1OC	nt	8.3	-7.9	nt	nt
CCOc1ccc(OCC)c(NC(=O)C2CCN(S(=O)(=O)c3c(C)noc3C)CC2)c1	nt	30.8*	-17.7	nt	nt
CCc1c(C)c2c(C)nn(-c3ccccc3)c2[nH]c1=O	i	-5.1	-1.9	i	i
Cc1[nH]n(C(C)(C)C)c(=O)c1Sc1ccc(Cl)cc1	nt	5.2	1.5	nt	nt
Clc1ccc(C2Nc3ccccc3-n3cccc32)cc1 (configuration not stated)	i	-0.4	7.4	i	i
CCOC(=O)c1c(C)c(C(=O)Nc2cc(F)ccc2F)c(C)n1C	nt	2.8	4.4	nt	nt
Cc1ccnc(NC(=O)C2CCN(S(=O)(=O)c3cccc4nonc34)CC2)c1	nt	-11.9	2.3	nt	nt
CCOc1ccc(OCC)c(NC(=O)CN2CCN(C(=O)c3ccco3)CC2)c1	i	8.5	-3.0	i	i
Cc1ccc2occ(CN3CCN(c4ccccc4)CC3)c(=O)c2c1	i	4.9	-1.6	i	i
COc1ccccc1N1CCN(c2cc(N3CCCC3)nc(C)n2)CC1	i	2.2	-6.3	i	i
COc1ccc(-c2nnc(-c3cccs3)o2)cc1OC	i	6.4	1.1	i	i
COc1ccc(OC)c(C2CC(=O)NC(SC)=C2C#N)c1 (configuration not stated)	i	-3.3	-0.9	i	i
COC(=O)c1ccc(/C(O)=C(\C#N)c2nc3ccccc3s2)cc1	nt	-45.3	-5.4	nt	nt
O=C(CCC(=O)N1CCc2ccccc2C1)N1CCN(S(=O)(=O)c2ccccc2)CC1	i	7.9	-3.2	i	i
CCn1c2ccccc2c2nnc(SCC(=O)Nc3ncccn3)nc21	nt	4.6	-0.8	nt	nt
CCOC(=O)C1=C[C@]2(CC)CCCN3CCc4c(n1c1ccccc41)[C@@H]32	i	-2.9	-0.8	i	i
c1ccc(-n2ncc3c(N4CCCCC4)ncnc32)cc1	i	3.9	2.6	i	i
O=C(Cn1ncc2c(=O)oc3ccccc3c21)Nc1nc2ccccc2s1	i	-4.7	-1.5	i	i
Cc1cccc(CCNC(=O)CN(C)S(=O)(=O)c2ccc3c(c2)c(=O)n(C)c(=O)n3C)c1	nt	7.7	15.9	nt	nt
CCOC(=O)N1CCN(c2c(N3CCN(c4cccc(C(F)(F)F)c4)CC3)c(=O)c2=O)CC1	nt	2.0	-1.1	nt	nt
CCc1ccc(Cn2nnc(C(=O)NCc3ccccc3OC)c2N)cc1	nt	3.7	5.7	nt	nt
Cc1ccc(-n2ncc3c(=O)[nH]c(SCC(=O)N4CCCc5ccccc54)nc32)cc1	nt	2.7	-7.6	nt	nt
CCOC(=O)Cn1c(=O)oc2cc(S(=O)(=O)N3CCn4c3nc3ccccc34)ccc21	nt	-16.0	-7.9	nt	nt
Cn1nnnc1SCC(=O)NCc1ccco1	i	6.1	-5.9	i	i
CCCCOc1ccc(OCCCC)c2c1NC1(N2)C(=O)N(C(C)=O)c2ccccc21	nt	4.3	3.2	nt	nt
COC(=O)c1cc(-c2ccc(Br)cc2)on1	nt	-7.7	-4.3	nt	nt
CC(C)CNS(=O)(=O)c1ccc(S(=O)(=O)N2CCN(CCC#N)CC2)cc1	nt	-3.3	0.5	nt	nt
COc1ccccc1NS(=O)(=O)c1ccc(Br)s1	nt	-8.8	2.2	nt	nt
COC(=O)c1cc(Br)c(=O)n(Cc2cccnc2)c1	i	0.0	-5.4	i	i
Nc1sccc1C(=O)c1ccc(Cl)cc1	i	1.0	8.5	i	i
CCOC(=O)C1CSc2[nH]c(=O)sc2C1c1ccccc1 (configuration not stated)	i	-0.1	-3.5	i	i
COc1ccc(C(C)=O)c(OC(=O)c2ccc(OC)c(OC)c2)c1	i	-2.4	-0.9	i	i
Cc1nc(C)c(C(=O)NCc2ccccc2Cl)o1	nt	-1.9	1.8	nt	nt
O=C(c1cccc(N2C(=O)C3CC=CCC3C2=O)c1)N1CCN(c2ccccc2)CC1 (configuration not stated)	nt	0.8	-1.4	nt	nt
CCn1cc(C(=O)N2CC(C)CC(C)C2)c(=O)c2cc(S(=O)(=O)N3CCOCC3)ccc21 (configuration not stated)	nt	1.9	3.8	nt	nt
COc1cccc(-n2nnc3c(=O)n(CC(=O)NC4CCCC4)cnc32)c1	nt	1.1	-3.8	nt	nt
O=C1CSC(c2ccccn2)N1c1cccc(Cl)c1 (configuration not stated)	nt	2.5	-2.2	nt	nt
CCN(CCO)C1CC(=O)N(c2ccccc2C)C1=O (configuration not stated)	i	6.2	-6.5	i	i
CCc1nnc(-n2nc(C)cc2-c2ccccc2)n1N	i	-3.2	0.8	i	i
COc1cccc(-c2nc3n(n2)C(c2ccccc2Cl)C(C(N)=O)=C(C)N3)c1 (configuration not stated)	i	-2.8	4.1	i	i
Cc1ccc(-c2nc3ncccn3c2NC2CCCC2)o1	nt	-5.3	0.9	nt	nt
COc1cccc(-c2cc(C(F)(F)F)nc(-n3cncn3)n2)c1	nt	-3.0	0.7	nt	nt
Cn1c(=O)cc(OCCCC(=O)NCc2ccc3c(c2)OCO3)c2ccccc21	nt	8.0	-0.2	nt	nt
O=c1cc(-c2ccco2)oc2ccc(Cl)cc12	i	0.6	-1.7	i	i
O=c1c2ccccc2nc2c3ccccc3c(N3CCOCC3)nn12	nt	-8.1	-4.3	nt	nt
CCc1nnc(NC(=O)C2Cc3ccccc3CN2S(=O)(=O)c2cccs2)s1 (configuration not stated)	i	-8.1	-0.8	i	i
Brc1cccc(-c2nnc3sc(CN4CCC5(CC4)OCCO5)cn23)c1	nt	-4.2	-4.0	nt	nt
CCn1c(C(=O)N2CCCC(C(=O)NCCCc3ccccc3)C2)cc2sccc21 (configuration not stated)	i	0.4	7.7	i	i
COc1cccc(C2CC(=O)N3CN(c4cccc(Cl)c4C)CSC3=C2C#N)c1OC (configuration not stated)	nt	6.6	8.0	nt	nt
Cc1oc2c(CN3CCOCC3)c(O)ccc2c(=O)c1-c1ccccc1	nt	-2.1	-8.8	nt	nt
N#CC1=C(SCC(=O)c2cc3ccccc3oc2=O)NC(=O)C(C#N)C12CCCC2 (configuration not stated)	i	-1.7	-1.8	i	i
O=C(NC1CCS(=O)(=O)C1)c1c(NC(=O)C2COc3ccccc3O2)sc2c1CCCC2 (configuration not stated)	i	-0.3	12.0	i	i
COc1cccc(NC(=O)CCS(=O)(=O)c2cccs2)c1	nt	-2.5	-2.9	nt	nt
COc1cccc(CN(C(=O)c2cc3ccccc3oc2=O)C2CC2)c1	i	9.1	-12.5	i	i
O=P(CCNCc1ccco1)(c1ccccc1)c1ccccc1	i	2.1	0.7	i	i
CC(C)C(=O)Nc1nnc(CCc2nnc(NC(=O)C(C)C)s2)s1	i	10.9	12.2	i	i
CCCN(CCC)C(=O)Cn1c(=O)n(CCCCC(=O)NC2CCCC2)c(=O)c2ccccc21	nt	-15.8	2.9	nt	nt
CCOC(=O)CC(N)c1ccc(OC)cc1 (configuration not stated)	nt	1.4	-4.6	nt	nt
Cn1nnnc1SCc1cc(=O)[nH]c2ccccc12	nt	-1.8	-3.4	nt	nt
New compounds follow:
SMILES	VCAM-1 augmentation	FPRL1 binder	FPR ligand	VCAM-1 down	VCAM-1 imaging
CC(C)(C#N)Nn1cnnc1	i	5.1	4.1	i	i
CC12CC(NC(=O)N1c1cccc(C(=O)Nc3ncn[nH]3)c1)c1ccccc1O2 (configuration not stated)	nt	-7.6	-2.8	nt	nt
Cc1ccccc1S(=O)(=O)Cc1ccc(C(=O)NCCN2CCN(Cc3ccccc3)CC2)o1	nt	-0.6	-5.8	nt	nt
COc1ccccc1S(=O)(=O)Cc1ccc(C(=O)N2CCN(c3ccccc3)CC2)o1	nt	2.3	-1.2	nt	nt
CC1=C(C(=O)Nc2cccnc2)C(c2ccncc2)n2nnnc2N1 (configuration not stated)	nt	3.7	7.8	nt	nt
Cc1nc2ccc(S(=O)(=O)NCC(=O)N(C)Cc3ccco3)cc2s1	i	1.7	-0.5	i	i
CCn1cc(C(=O)N2CCCC2)c(=O)c2cc(S(=O)(=O)N(C)C)ccc21	nt	-2.1	-6.8	nt	nt
COc1ccc2oc(C(=O)C3CC3)c(NC(=O)CCCN3C(=O)c4ccccc4C3=O)c2c1	nt	-5.7	3.3	nt	nt
C=CCNC(=O)c1oc2ccc(S(=O)(=O)N(CC)CC)cc2c1C	nt	-0.3	-2.9	nt	nt
O=C1CCCc2[nH]nc(-c3cccnc3)c21	nt	6.1	3.3	nt	nt
COCC(=O)Nc1sc2c(c1C(=O)OC)CCC(C)C2 (configuration not stated)	i	-15.0	3.2	i	i
COc1cccc(N2CCN(CC(=O)c3c[nH]c4ccc(OC)cc34)CC2C)c1 (configuration not stated)	i	-3.3	8.8	i	i
COC(=O)n1ccc(C(=O)Nc2ccccc2F)n1	nt	8.1	1.5	nt	nt
CCn1c(C)nc2cc(C(=O)OC(C(F)(F)C(F)F)C(F)(F)C(F)F)ccc21	i	-2.5	1.7	i	i
CCOc1ccc(OCC)c(Nc2cc(C)nc3nc(C)nn23)c1	nt	5.1	4.3	nt	nt
CCCCCCNS(=O)(=O)c1ccc(Cl)s1	i	-10.0	-1.7	i	i
CCn1c(SCC(N)=O)nnc1-c1ccc(S(=O)(=O)N2CCN(C)CC2)cc1	i	2.5	-11.6	i	i
O=C(CSC1=NCCS1)Nc1nc2c(s1)CCCC2	nt	4.6	7.0	nt	nt
CCOc1cc(C(=O)NCc2nnc(SCC(=O)OC)n2C)cc(OCC)c1OCC	i	74.6*	9.1	i	i
COc1ccc(S(=O)(=O)N2CC3C4C=CC(C4)C3C2)cc1 (configuration not stated)	nt	-3.0	3.3	nt	nt
COCCCNC(=O)c1ccc2c(=O)n(C3CCCC3)c(=S)[nH]c2c1	nt	-6.4	2.4	nt	nt
Cc1onc(-c2ccccc2)c1C(=O)N1CCCSC1=Nc1ccccc1	i	-4.9	-0.5	i	i
Nc1nc(Nc2ccc(Cl)cc2Cl)nc(C(F)(F)F)n1	i	-4.0	3.5	i	i
COCCNC(=O)c1cc2c(=O)n(C)c3ccccc3c2n1C	nt	-2.7	-9.9	nt	nt
CCCN(C(=O)CSc1nnc(-c2ccoc2C)n1N)C1CCS(=O)(=O)C1 (configuration not stated)	i	-1.5	-1.4	i	i
O=C(Nc1nccs1)C(NS(=O)(=O)c1ccc(Br)s1)c1ccccc1 (configuration not stated)	nt	-2.2	8.7	nt	nt
COc1ccc(N2C(=O)CCC(C(=O)N3CCCCC3)C2c2ccc(F)cc2)cc1 (configuration not stated)	nt	5.3	0.1	nt	nt
CCOCCCNC(=O)c1ccc2c(c1)N(Cc1ccccc1)C(=O)CS2=O (configuration not stated)	i	-2.3	-5.3	i	i
COc1ccc(-c2nc(SC)n(S(=O)(=O)c3ccccc3)n2)cc1	i	-0.9	-8.5	i	i
c1ccc(OCc2nnc3sc(C4COc5ccccc5O4)nn23)cc1 (configuration not stated)	nt	0.6	2.2	nt	nt
Cc1ccc(-c2cn3c(=S)[nH]nc3s2)cc1	nt	3.7	5.1	nt	nt
O=C(O)CN1C(=O)CNC1=O	i	-0.4	5.7	i	i
CC(=O)N1CCN=C1SCc1cccc(C(F)(F)F)c1	nt	-0.5	2.9	nt	nt
O/N=C1/CCSc2ccccc21	nt	-0.1	5.3	nt	nt
Cn1c(=O)oc2cc(S(=O)(=O)N3CCCC(C(=O)NCCN4CCOCC4)C3)ccc21 (configuration not stated)	nt	9.6	-15.1	nt	nt
COc1ccc(-c2cnc(SCC(=O)Nc3ccc4c(c3)OCO4)n2Cc2ccco2)cc1	i	-2.4	0.5	i	i

Filtered by structure, those above containing bromine
SMILES	VCAM-1 augmentation	FPRL1 binder	FPR ligand	VCAM-1 down	VCAM-1 imaging
COC(=O)c1cc(-c2ccc(Br)cc2)on1	nt	-7.7	-4.3	nt	nt
COc1ccccc1NS(=O)(=O)c1ccc(Br)s1	nt	-8.8	2.2	nt	nt
COC(=O)c1cc(Br)c(=O)n(Cc2cccnc2)c1	i	0.0	-5.4	i	i
Brc1cccc(-c2nnc3sc(CN4CCC5(CC4)OCCO5)cn23)c1	nt	-4.2	-4.0	nt	nt
O=C(Nc1nccs1)C(NS(=O)(=O)c1ccc(Br)s1)c1ccccc1 (configuration not stated)	nt	-2.2	8.7	nt	nt

Source: PubChem (several laboratories)
